From PubChem BioAssay
WNV NS2B-NS3 inh – WNV NS2B-NS3 proteinase inhibition. P06935. WNV NS2B-NS3 protease, fluorogenic substrate Ex360/Em465; hits give low values. z-score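 (tested at a level between 10 and 100 µM)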. hit rate 0.18% among 65,000;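 active = z-score at -3 or under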;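 note: score is relative to mean and spread of the compound wells of a plate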
Target sequence (P06935 1371-1501 limits assumed): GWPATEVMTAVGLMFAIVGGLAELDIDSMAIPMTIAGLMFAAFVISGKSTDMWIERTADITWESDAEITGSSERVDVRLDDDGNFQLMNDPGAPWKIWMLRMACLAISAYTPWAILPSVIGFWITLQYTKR
Target sequence (P06935 1502-1679 limits assumed): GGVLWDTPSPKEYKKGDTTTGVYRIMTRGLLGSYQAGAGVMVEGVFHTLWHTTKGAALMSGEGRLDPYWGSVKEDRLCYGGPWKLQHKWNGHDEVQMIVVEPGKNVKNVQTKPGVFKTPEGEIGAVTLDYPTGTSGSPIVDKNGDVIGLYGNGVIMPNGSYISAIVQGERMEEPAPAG
MT1-MMP promoter – inhibitors of MT1-MMP promoter transcription, cell-based, luciferase reporter, luminescence (AID 618). hit rate 0.62% among 87,000. MT1-MMP promoter luciferase reporter cells, luminescence. calls from a first round at 10 µM; hits with a dose series show EC50 in µM;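 active = over half of the reporter light lost at 10 µM or EC50 under 50 µM; inactive = the rest and hits that failed the dose series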;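 note: actives suppress MT1-MMP promoter-driven transcription so potencies describe inhibitors; HT1080 fibrosarcoma cells; overnight exposure; toxic or luciferase-blocking compounds were not removed from the actives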
Hsc70 ATP site – Hsc70 inhibitors, probe displacement, primary screen, biochemical, fluorescence polarization (AID 568); Hsc70 fluorescence polarization, probe displacement; higher % means a stronger effect; strong numbers were not always called active; one-dose displacement, % at 20 µM; IC50 in µM for titrated hits; 83,000 tested, under 10 active;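 active = displacement above 50% without optical interference and an IC50 on retest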;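 note: ATPase domain with a fluorescein-tagged ATP probe; 0% = vehicle and 100% = excess ADP; read after one hour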
* = called active by the depositor; i = inactive; / = not tested or not shown.

Order of results – WNV NS2B-NS3 inh, MT1-MMP promoter, Hsc70 ATP site
- CCc1n[nH]c2c1/C(=N\O)CC(c1ccccc1)C2 (stereo not given)
  -1, i, -2.9%
- CC1CC2(CC(C)(C(=O)CSc3nc4ccccc4s3)OC2=O)C(=O)O1 (stereo not given)
  -0.43, i, 5.1%
- CCC(c1nnc(SCC(=O)Nc2nnc(-c3ccccc3)o2)o1)N(C)C (stereo not given)
  -1.36, i, -5.3%
- COc1ccccc1/C=N/Nc1nccnc1Cl
  /, i, 1.6%
- O=C(NCCCN1CCN(c2ccccc2F)CC1)C1CCN(S(=O)(=O)N2CCOCC2)CC1
  -0.46, i, 3.8%
- CC(C)Cc1nc2oc3c(=O)[nH]cnc3c2c2c1CCC2
  0.36, i, -2.7%
- CC(C)Cn1c(NCCN(C)C)nc2c1c(=O)[nH]c(=O)n2C
  1.16, i, 1.9%
- O=C(Nc1ccccc1N1CCOCC1)C1Cc2ccccc2CN1C(=O)c1ccco1 (stereo not given)
  /, i, 7.2%
- O=C1C=C(c2ccccc2)C(=O)N1Nc1ccccc1
  /, i, -0.6%
- Cc1nnc(SCC(N)=O)n1CC1CCCO1 (stereo not given)
  -0.48, i, -7.2%
- CCCCCCn1c(CN2CCN(C(=O)c3ccco3)CC2)nc2c1c(=O)n(C)c(=O)n2C
  -0.02, i, 1.1%
- O=C(c1cccs1)N1CCN(S(=O)(=O)N2CCOCC2)CC1
  1.3, i, 4.1%
- Cc1ccc(-c2csc(NC(=O)c3ccno3)n2)cc1
  -1.09, i, -14.5%
- Cn1cc(SCC(=O)NCc2ccc3c(c2)OCO3)c2ccccc21
  0.08, i, -2.2%
- COc1ccc(CN2CCN(S(=O)(=O)c3ccc(F)cc3)CC2)cc1OC
  0.26, i, 0.7%

Additional structures follow:
Order of results – WNV NS2B-NS3 inh, MT1-MMP promoter, Hsc70 ATP site
- CCOC(=O)C1C(=O)CC(C)(O)C(C(=O)OCC)C1c1ccc(Br)o1 (stereo not given)
  -2.66, i, -2.6%
- COC(=O)c1ccc(CSc2ncnc3c2nnn3-c2ccc(F)cc2)o1
  -0.78, i, 5.0%
- Cc1cccc(N2CCN(CC(=O)Nc3ccc(-n4cnnn4)cc3)CC2)c1C
  /, i, -0.2%
- Cc1nn(C(=O)c2ccccc2)c2c1C(=O)CC(C)(C)C2
  0.73, i, 9.0%
- CCC(C)[C@H](Nc1nc(-c2ccccc2)nc2c1oc1ccccc12)C(=O)O (stereo not given in full)
  /, i, -4.5%
- CN(C)c1oc(-c2ccccc2F)nc1C#N
  0.37, i, -0.3%
- COC(=O)c1cc(-c2cccc(OC)c2)on1
  -1, i, -3.2%
- N#Cc1cnn(CC2CCCCC2)c1N
  0.12, i, 3.2%
- CC(C)(C)NC(=O)NC(=O)COC(=O)CNC(=O)c1cccc(F)c1
  0.82, i, 6.7%
- O=C(CCCN1C(=O)c2ccccc2C1=O)Nc1ccccn1
  2.31, i, 8.4%
- CN(C)S(=O)(=O)c1cc(C(=O)O)c(NC2CCCCC2)cc1Cl
  /, i, -0.2%
- CCCCOc1ccc(OCCCN2CCOCC2)cc1
  0.21, i, 2.0%
- CC(C)C(=O)Nc1cccc(C(=O)Nc2nnc(C(C)C)s2)c1
  /, i, 3.3%
- O=C(Nc1ccc(Cl)cn1)c1cccnc1
  0.51, i, -2.8%
- CCOc1ccc(C(=O)N[C@H](C(=O)O)C(C)C)cc1
  /, i, -4.2%

Carrying on:
Order of results – WNV NS2B-NS3 inh, MT1-MMP promoter, Hsc70 ATP site
- O=C(c1cccs1)N1CCN(Cc2cccnc2)CC1
  2.42, i, -3.5%
- COC(=O)c1ccccc1OCc1cccc(C)n1
  -0.73, i, -6.0%
- CC1(C)Nc2ccccc2N(CCC(=O)N2CCOCC2)C1=O
  -0.36, i, -8.0%
- Cc1ccc(Nc2cc(-n3cccn3)ncn2)c(C)c1
  /, i, -3.2%
- CCCCC1CC(/C(C)=N/NC(N)=O)OC1=O (stereo not given)
  /, i, -2.0%
- CC(C)C(NS(=O)(=O)c1ccc2c3c(cccc13)C(=O)N2)C(=O)O (stereo not given)
  -0.34, i, -2.4%
- COc1ccc(C(=O)OC(COc2ccccc2)Cn2ccnc2)cc1 (stereo not given)
  1.06, i, 2.6%
- Cc1cc(=O)c2cccc(Br)c2[nH]1
  /, i, 2.6%
- Fc1ccc(N2CCN(Cc3cnc(Oc4ccc(Br)cc4)s3)CC2)cc1
  /, i, -3.9%
- Cc1cc(C)c(S(=O)(=O)N(C)CC(N)=O)c(C)c1
  0.11, i, 2.8%
- CS(=O)(=O)N(CC(=O)O)c1cccc(Cl)c1
  -0.28, i, 0.8%
- Fc1ccc(C2=Nn3c(nnc3-c3n[nH]c4c3CCC4)SC2)cc1
  -0.45, i, 1.1%
- Cc1ccc(S(=O)(=O)N(CC(=O)N2CCOCC2)C2CCCCC2)cc1
  0.49, i, 0.9%
- Cc1ccc([N+](=O)[O-])cc1-c1[nH]c(-c2ccc(O)c(O)c2)nc1-c1ccccc1
  /, i, 5.9%
- CCCCc1c(C)nn(-c2nnc3c4ccccc4n(CC)c3n2)c1C
  -0.63, i, -1.0%

New compounds follow
Order of results – WNV NS2B-NS3 inh, MT1-MMP promoter, Hsc70 ATP site
- N[C@@H](Cc1ccccc1)c1nnc(SCc2ccccc2Cl)o1
  -1.75, i, 0.9%
- O=C(OCc1nc2ccccc2c(=O)[nH]1)c1cccs1
  -0.45, i, 5.5%
- O=C(/C=C/c1ccc(Cl)cc1Cl)c1cccnc1
  /, i, -5.7%
- Cc1c(O)c(CN2CCCCC2)cc2c3c(c(=O)oc12)CCC3
  4.81, i, 4.3%
- Cc1cc(S(=O)(=O)N2CCCC2)ccc1OCC(=O)N1CCOCC1
  -0.7, i, -1.8%
- CCOC(=O)/C(C#N)=C1/C=Nc2ccccc2N1
  2.71, i, -11.5%
- CCOC(=O)C(NC(=O)CCC(=O)Nc1ccc(S(N)(=O)=O)cc1)C(O)c1ccccc1 (stereo not given)
  -0.71, i, -3.1%
- CC(C)n1c(SCc2ccc(Cl)cc2)nc2c1c(=O)[nH]c(=O)n2C
  -1.37, i, -4.2%
- O=C(O)c1ccoc1CN1CCCCC1
  /, i, -6.0%
- COC(=O)COc1ccc2c(-c3ccc(OC)cc3)cc(=O)oc2c1
  /, i, 3.5%
- COc1ccc(C(c2nnnn2CS(=O)(=O)c2ccc(C)cc2)N2CCN(Cc3ccccc3)CC2)cc1 (stereo not given)
  /, i, -3.7%
- CC12CC3(C)CC(C)(C1)CC(C(=O)Nc1nn[nH]n1)(C2)C3
  /, i, 5.1%
- CCCn1c(SCC(=O)NC2CCCC(C)C2C)n[nH]c1=O (stereo not given)
  /, i, -3.7%
- CCOP(=O)(OCC)C(NCc1ccccc1)c1ccc(Br)cc1 (stereo not given)
  /, i, 0.7%
- CCOCC(=O)Nc1nc2c(s1)C(=O)CC(C)(C)C2
  -0.19, i, 0.3%

Later entries
Order of results – WNV NS2B-NS3 inh, MT1-MMP promoter, Hsc70 ATP site
- CCCCCOC(=O)C(C)c1c(C)[nH]c(=S)[nH]c1=O (stereo not given)
  -0.65, i, 0.6%
- O=C(NC1CCCC1)C1=COCCO1
  /, i, 3.7%
- COC(=O)C1=C(C)NC2=C(C(=O)CC(C)(C)C2)C1c1ccsc1 (stereo not given)
  /, i, -2.2%
- CCOc1ccc2noc3c2c1C(=O)c1ccccc1-3
  0.74, i, 129.4%
- O=C(Nc1ccccc1N1CCCCC1)c1ccc(N2C(=O)c3ccccc3C2=O)cc1
  /, i, 4.3%
- CCC(C)(C(=O)NC1CCCCC1)N(C(=O)C1CCC(=O)N1)c1ccc(C)cc1 (stereo not given)
  0.5, i, -1.2%
- CC1CCCCN1CCNC(=O)c1cc2c(-c3ccccc3F)nn(C)c2s1 (stereo not given)
  0.04, i, 1.0%
- CC(=O)[C@@]1(O)CC[C@H]2[C@@H]3C[C@H](C)C4=CC(=O)CC[C@]4(C)[C@H]3CC[C@@]21C
  0.39, i, 0.1%
- CCOC(=O)c1c(C)[nH]c(C(=O)COC(=O)CNC(=O)C2CCCCC2)c1C
  -0.42, i, -2.8%
- CCOC(=O)N1CCN(C(=O)C2CCCN(S(=O)(=O)c3cc(C)ccc3OC)C2)CC1 (stereo not given)
  -0.69, i, -1.3%
- CC(C)CCNC(=O)CCCOc1cc(=O)n(C)c2ccccc12
  -0.52, i, -6.0%
- CCOC(=O)c1sc(NC(=O)c2cc3c(C)nn(-c4ccccc4)c3s2)nc1C
  0.07, i, -2.3%
- CCN(CCNC(=O)C1CC(=O)N(CCc2ccccc2)C1)c1ccccc1 (stereo not given)
  1.83, i, 2.2%
- CN1CC(=O)N(CC(=O)NCc2ccc(F)cc2)c2ccccc2C1=O
  -0.32, i, -10.1%
- COc1cccc(NC(=O)c2ccco2)c1
  0.47, i, -2.8%

New compounds follow:
Order of results – WNV NS2B-NS3 inh, MT1-MMP promoter, Hsc70 ATP site
- O=C1OCCC1Sc1nnc(-c2cccs2)n1Cc1ccccc1 (stereo not given)
  -0.8, i, 3.5%
- COc1cccc(C(=O)Nc2ccccc2C(=O)N2CCCC2)c1
  /, i, -2.6%
- O=C(COC(=O)c1ccc(Oc2ccccc2)cc1)Nc1nnc(-c2ccccc2)o1
  -0.03, i, -15.9%
- Cc1ccc(CCP(=O)(O)CN2CCCCC2)cn1
  -0.32, i, 2.6%
- CN1CCCC(OC(=O)c2cc(Br)ccc2Cl)C1 (stereo not given)
  0.9, i, -0.4%
- CCOC(=O)C1CCN(C(=O)CSCc2nc(-c3ccc(OCC)cc3)oc2C)CC1
  -1.22, i, 5.0%
- CCOC(=O)C1CCN(S(=O)(=O)c2ccc(OCC)cc2)CC1
  0.27, i, -2.5%
- COCCNC(=O)C1CC(=O)N(c2ccc(F)c(Cl)c2)C1 (stereo not given)
  0.43, i, 7.1%
- COc1ccc(S(=O)(=O)Nc2cccc(NC(C)=O)c2)cc1
  -0.67, i, 0.9%
- CCC12CC3CC(C1)CC(C(=O)Nc1nn[nH]n1)(C3)C2
  0.22, i, -5.2%
- CC(C)C(OC(=O)c1cccs1)C(=O)NC1CCCCC1 (stereo not given)
  /, i, -0.4%
- CCCC(=O)Nc1cccc(NC(=O)c2ccc3c(c2)OCO3)c1
  1.82, i, 4.1%
- O=C(Cn1cc(/C=N/O)c2ccccc21)N1CCOCC1
  1.49, i, -5.0%
- CCOCCCNc1nc2c([nH]1)c(=O)n(C)c(=O)n2C
  0.5, i, 0.3%
- O=C(Cn1cc2c(n1)CCCC2)NCc1ccccn1
  0.31, i, 14.3%

More entries follow.
Order of results – WNV NS2B-NS3 inh, MT1-MMP promoter, Hsc70 ATP site
- CCSc1nc2c(c(=O)[nH]1)C(c1cccnc1)C(C(=O)OC)=C(C)N2 (stereo not given)
  -0.91, i, 2.2%
- CCCNC(=O)CS(=O)Cc1nc(-c2ccccc2C)oc1C (stereo not given)
  0.26, i, 5.9%
- Nc1nnc(SCc2ccccc2)n1-c1ccccc1
  /, i, 1.1%
- Cc1cccc(-n2c(O)c(C=NCCCN3CCOCC3)c3ccccc3c2=O)c1
  1.17, i, -2.3%
- O=C(CN1CCN(C(=O)c2ccco2)CC1)Nc1cc(C(F)(F)F)ccc1Cl
  1.21, i, 4.7%
- COc1ccc2cc3c(N)c(C(=O)N4CCCC4)sc3nc2c1
  -0.29, i, 21.9%
- COc1ccc(CCNC(=O)c2cc(-c3cc(C)c(C)cc3O)n[nH]2)cc1OC
  0.88, i, -2.2%
- Cn1c(N)c(C(=O)COC(=O)c2ccc(Br)o2)c(=O)n(C)c1=O
  /, i, 1.2%
- Cc1ccccc1NC(=O)C1CCCN1S(=O)(=O)c1cccc2cccnc12 (stereo not given)
  -0.12, i, 3.3%
- COCc1nnc(NS(=O)(=O)c2ccc(NC(C)=O)cc2)s1
  0.14, i, 2.1%
- CCc1nc(C)cn1S(=O)(=O)c1ccc(Cl)c(Cl)c1Cl
  -0.43, i, 0.9%
- O=C(c1cnn2c(C(F)(F)F)cc(-c3ccccc3)nc12)N1CCOCC1
  -0.43, i, 5.9%
- Cc1ccc(-c2ccc(/C=N/N3C(=O)C4C5C=CC(CC5)C4C3=O)o2)c([N+](=O)[O-])c1 (stereo not given)
  /, i, -1.3%
- Cc1ccc(S(=O)(=O)N2C=CC(C(F)(F)F)=NCC2)cc1
  /, i, 4.1%
- COc1cc(-c2nc3cnccn3c2Nc2ccc(C)cc2)ccc1O
  /, i, 0.6%

Profiles, looked up by structure. Values in the order: WNV NS2B-NS3 inh | MT1-MMP promoter | Hsc70 ATP site
Listed for COCc1nnc(NS(=O)(=O)c2ccc(NC(C)=O)cc2)s1 : 0.14 | i | 2.1%
Listed for O=C(c1cnn2c(C(F)(F)F)cc(-c3ccccc3)nc12)N1CCOCC1 : -0.43 | i | 5.9%
Listed for CCCNC(=O)CS(=O)Cc1nc(-c2ccccc2C)oc1C (stereo not given) : 0.26 | i | 5.9%

Additional results.
Order of results – WNV NS2B-NS3 inh, MT1-MMP promoter, Hsc70 ATP site
- CCC1(C)Cc2c(sc3nc(SCC(=O)O)[nH]c(=O)c23)CO1 (stereo not given)
  -0.23, i, 0.9%
- Cn1cccc1C(=O)NC(=O)COC(=O)CNS(=O)(=O)c1ccc(Br)cc1
  /, i, -3.3%
- COC(=O)C1=C(Nc2ccc(C)cc2)C=C(C)C(C(=O)OC)C1c1ccc(F)cc1 (stereo not given)
  /, i, -1.2%
- CCC(C)(C)NC(=O)C1CCN(c2nc(C)cc(C)n2)CC1
  0.43, i, -2.9%
- O=C1CCc2cc(S(=O)(=O)NCCC(=O)N3CCN(c4cccc(Cl)c4)CC3)ccc2N1
  -1.22, i, -1.8%
- Cc1ccc(SCC(=O)Nc2cc(C)on2)cc1
  /, i, 4.9%
